Screening data deposited in PubChem by National Center for Advancing Translational Sciences (NCATS).
HPGD inh: blocks human HPGD enzyme activity. purified HPGD, NADH fluorescence kinetic, PGE2 substrate. Potency, µM, inactives show top-dose activity change, negative = inhibition, most hits filed as inhibitors. 150,000 compounds, 4.3% hits. AID 894; active = well fitted inhibition curve with a large enough effect (not every such curve was filed as active); inconclusive = small, poorly fitted or top-dose-only effect, or another doubt; inactive = no such curve, though single readings can be large or run the other way;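 further: top concentration of the series not given in the record; plate controls included wells without enzyme; inactives centre near -10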
Target sequence (P15428 whole entry, looked up): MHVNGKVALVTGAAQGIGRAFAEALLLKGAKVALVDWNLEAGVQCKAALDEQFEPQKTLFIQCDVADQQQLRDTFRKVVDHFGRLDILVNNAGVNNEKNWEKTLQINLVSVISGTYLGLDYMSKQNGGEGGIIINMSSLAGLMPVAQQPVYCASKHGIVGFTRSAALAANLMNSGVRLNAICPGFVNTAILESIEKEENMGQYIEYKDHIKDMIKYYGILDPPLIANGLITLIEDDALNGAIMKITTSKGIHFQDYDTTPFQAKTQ
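NADH formation kinetics: reaction with 30 uM PGE2 and 1 mM NAD+ (final), 20 nM enzyme, Tris-HCl pH 8 with Tween 20, after 15 min compound preincubation at room temperature. Fluorescence change, last versus first of five reads.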
Active calls of the source: *; ? = inconclusive; & = joins results of further samples. On the % scale 0 is the no-effect control and ±100 the full control effect; potency means the concentration at half of the fitted maximal effect. The list is partial. The share of hits here may be higher or lower than overall.

SMILES | HPGD inh
CC(C)(C)n1nc2c(c1NC(=O)COc1ccc3ccccc3c1)CS(=O)C2 (configuration not stated) | -2%
CCC(=O)N(CCC(c1ccccc1)c1ccco1)Cc1cccs1 (configuration not stated) | -20%
CCOC(=O)c1nn(-c2ccccc2)c(=O)cc1SC(C)CC (configuration not stated) | -11%
Cc1cc(OCC(=O)N[C@@H](Cc2ccccc2)c2nc3ccccc3[nH]2)ccc1Cl | -3%
COc1ccc(CC(=O)OCc2cc3cccc(C)c3[nH]c2=O)cc1 | ?
Cc1ccc(-n2nnnc2SCCNS(=O)(=O)c2ccccc2)cc1C | -6%
Cc1oc(C)c(C(=O)NCCCC(=O)O)c1C(=O)NCCCC(=O)O | -8%
COCCNC(=O)CCCCCn1c(=S)[nH]c2ccccc2c1=O | 13µM*
O=C(Nc1nnc(-c2ccco2)o1)c1cccc2ccccc12 | -24%
c1ccc(-n2nnnc2Oc2cccc3cccnc23)cc1 | -7%
Cc1ccc(NC2(C(F)(F)F)N=C(c3ccccc3)NC2=O)nc1 (configuration not stated) | -5%
O=C(O)CP(=O)(c1ccccc1)c1ccccc1 | -11%
COc1ccc(CCNC(=O)c2cnccn2)cc1 | -6%
COc1ccc(C(=O)Nc2ccc3c4c(cccc24)CC3)cc1 | -20%
Cc1ccsc1C1C2=C(CCCC2=O)Nc2ncnn21 (configuration not stated) | -23%
CSC1=NSC2=NC(=O)/C(=C\c3cccs3)C(=N)N12 | -2%
CCOC(=O)c1c(/N=C/c2cc(C)ccc2O)sc2c1CCN(C)C2 | -9%
CN(C)CCCOc1ccc(Cl)cc1Br | 2%
O=C(CNC(=O)c1ccc(Cl)cc1Cl)NCCCn1ccnc1 | -10%
c1ccccc1 | -3%&-5%
CCN(CC)CCN1C(=O)c2oc3ccccc3c(=O)c2C1c1ccc(C)cc1 (configuration not stated) | -2%
COc1cc(NC2=CC(=O)CC(C)(C)C2)cc(OC)c1 | -14%
Cc1cccc(NC(=O)Cn2c(=O)n(Cc3ccccc3)c(=O)c3c(C)c(C)sc32)c1 | -5%
COc1ccc2c(c1OC)C(=O)OC2Nc1ncccc1C (configuration not stated) | -14%
O=C(Nc1nnc(CCc2ccccc2)s1)C1CCCO1 (configuration not stated) | -4%
Cc1nn(Cc2ccc(Cl)c(Cl)c2)c(C)c1NC(=O)c1cc(CC(C)C)on1 | -13%
CC(=O)N1CCc2cc(S(=O)(=O)CCC(=O)O)ccc21 | -6%
COC(=O)c1ccc(-n2c(C)cc(C(=O)CSc3ccc(NC(C)=O)cc3)c2C)cc1 | -6%
Cn1nnc(NCc2cc(Br)ccc2OCc2cccs2)n1 | -20%
O=c1c(O)c(-c2cccs2)oc2ccccc12 | -28%
CC(NC(=O)CCC1COc2ccccc2O1)c1ccccc1 (configuration not stated) | -9%
CC(=O)NC(C)C(=O)OCC(=O)Nc1ccc(Br)cc1 (configuration not stated) | -11%
CC(=O)N1C(c2ccccc2)CC(=O)OC1c1ccc2c(c1)OCO2 (configuration not stated) | -10%
CCC(C)(C)NC(=O)CN(CC1CCCO1)C(=O)CCC(=O)Nc1nccs1 (configuration not stated) | -11%
Cc1cccc(NC(=O)CC2SC(=NC3CCCCC3)NC2=O)c1 (configuration not stated) | 5%
Cc1ccc(N(C(=O)Nc2ccccc2)C2=NCC(C)S2)cc1 (configuration not stated) | 11µM*
CC(=O)NCCC(=O)NCc1ccc(F)cc1 | -9%
Cc1ccc(-c2noc(C3CCCCC3)n2)cc1 | -13%
COc1ccc(-c2[nH]c(-c3ccc(C)cc3)nc2SCC(=O)NCc2ccco2)cc1OC | -22%
CCCCc1ccc(-c2csc(/C(C#N)=C/c3ccco3)n2)cc1 | -17%
CC(C)c1ccc(NC2(C#N)C(=O)Nc3ccccc32)cc1 (configuration not stated) | -16%
Cc1c(Cl)cccc1NC(=O)COC(=O)CCc1nc2ccccc2n1-c1ccccc1 | 2%
CC(=O)Nc1ccc(NC(=O)Cn2c(CC(=O)N3CCCC3)nc3ccccc32)cc1 | 1%
COc1ccc(-c2nnc3ccc(SCC(=O)N4CCCCCC4)nn23)cc1OC | -13%
CC(NCC1(N2CCOCC2)CCCCC1)C(=O)N1CCc2ccccc21 (configuration not stated) | 3%
CC(=O)C1C(c2ccco2)c2c(noc2C)CC1(C)O (configuration not stated) | 2%
CCO/C(C)=C1\C(=O)N(CC)c2ccccc21 | -14%
COC(=O)C(CCSC)NC(=O)CNS(=O)(=O)c1ccc(Br)cc1 (configuration not stated) | -2%

Structural class, those above containing a thiophene ring, fused or not (7)
SMILES | HPGD inh
CCC(=O)N(CCC(c1ccccc1)c1ccco1)Cc1cccs1 (configuration not stated) | -20%
Cc1ccsc1C1C2=C(CCCC2=O)Nc2ncnn21 (configuration not stated) | -23%
CSC1=NSC2=NC(=O)/C(=C\c3cccs3)C(=N)N12 | -2%
CCOC(=O)c1c(/N=C/c2cc(C)ccc2O)sc2c1CCN(C)C2 | -9%
Cc1cccc(NC(=O)Cn2c(=O)n(Cc3ccccc3)c(=O)c3c(C)c(C)sc32)c1 | -5%
Cn1nnc(NCc2cc(Br)ccc2OCc2cccs2)n1 | -20%
O=c1c(O)c(-c2cccs2)oc2ccccc12 | -28%

Remaining list, next part.
SMILES | HPGD inh
CCOC(=O)C(=O)Nc1nc(-c2ccccc2)c(-c2ccccc2)o1 | -5%
O=C(Nn1cnc2ccccc2c1=O)c1ccc(F)cc1Cl | -20%
CCc1ccc(N2C(=O)Cc3c2nc(N)c(C#N)c3N)cc1 | -20%
COc1ccc(N2CCN(C(=O)c3ccc(S(=O)(=O)N4CCOCC4)cc3)CC2)cc1 | -6%
COc1ccc(N2CCN(Cc3cc(=O)oc4cc(-c5ccccc5)c(O)cc34)CC2)cc1 | -22%
CCOC(=O)C1CCN(C(=O)C2CC(=O)N(c3ccc(C)cc3)C2)CC1 (configuration not stated) | -7%
O=C(Nc1ccc2c(c1)OCO2)N1CCOCC1 | -2%
CCOc1ccc2c(c1)cc(CN(C(=O)CC)C1CCCCC1)c1nnnn12 | -12%
COCc1c(Br)c(C)nc(OCC(=O)N/N=C/c2cc(C)n(-c3ccc([N+](=O)[O-])cc3)c2C)c1C#N | -4%
CC(C)(C)c1cc(Cc2ccccc2)[nH]n1 | 20µM*
Cc1ccc(NC(=O)CC2SC3=NCCN3C2=O)cc1 (configuration not stated) | -13%
O=C(CCN1CCOCC1)Nc1ccc(F)cc1F | 0%
CCCCCOC(=O)Cc1c(C)nc(-c2ccccc2)[nH]c1=O | -1%
COc1cccc(C(=O)NCC(=O)OCc2ccc(F)cc2Cl)c1 | -11%
CCOc1ccccc1-c1ccc(C(=O)O)s1 | ?
N#Cc1cc(C(=O)c2ccccc2O)cn(-c2nccs2)c1=O | 32µM*
C=CCOC(=O)C1=C(C)NC(C)=C(C(=O)OCC=C)C1/C=C/c1ccccc1 | -2%
CCOc1ccccc1N(CC(=O)NC1CCCC1)C(=O)CCCC(=O)Nc1ccccn1 | -4%
CCOC(=O)C1CCN(C(=O)c2cc(OCC)c(OCC)c(OCC)c2)CC1 | -1%
Cn1nc(C(F)(F)F)c(C#N)c1N1CCN(c2ccc(F)cc2)CC1 | -9%
COc1ccccc1C1CC(=O)Oc2ccc(C(C)(C)C)cc21 (configuration not stated) | -7%
CN(C)c1ccc(NC(=O)Cn2ncn3c(cc4ccccc43)c2=O)cc1 | ?
Cc1oc2ccc(NS(=O)(=O)c3ccc(C(C)(C)C)cc3)cc2c1C(=O)Nc1ccccc1 | -25%
Cc1cccc(NC(=S)NCc2ccc(F)cc2)c1 | -29%
CC(=O)c1ccc(NC(=O)c2ccc(CSc3ccccc3)o2)cc1 | -28%
CC1CCN(C(C(=O)Nc2ccc3c(c2)OCO3)c2ccccc2)CC1 (configuration not stated) | -4%
CCn1c(CSCc2ccc(C)cc2)nnc1SCC(=O)NCc1ccccc1 | -10%
O=C(NCCCn1ccnc1)C(Cc1ccc([N+](=O)[O-])cc1)N1C(=O)c2ccccc2C1=O (configuration not stated) | -14%
Cc1ccc(C(=O)NCC(=O)OCC(=O)c2ccc(C)c([N+](=O)[O-])c2)cc1 | -8%
CCCCOC(=O)Cn1c(=O)oc2ccc(C)cc21 | -12%
CC(C)Sc1n[nH]c2nc3c(c(=O)n12)C1(CCCC1)Cc1ccccc1-3 | ?
O=S(c1ccsc1)c1ccsc1 | -20%
CN1CCC[C@@H]1c1cccnc1.O=C(O)c1ccccc1O.O=C([OH2+])c1ccccc1O.O=C([OH2+])c1ccccc1O.[Mn] | ?
CCOC(=O)c1ccc2nc(NC(=O)C(C)C)sc2c1 | 1%
Cc1cc(C(=O)c2ccccc2)c(NC(=O)CCl)s1 | ?
CCOC(=O)C(CCCCOc1cccc(CC)c1)C(=O)OCC | -3%
CN(C(=O)c1ccc2c(Cl)c3c(nc2c1)CCC3)c1ccccc1 | 4.5µM*
Cc1ccc2c(c1)c1c3n2CCN[C@H]3CCC1 | -16%&-14%
COc1cccc(C2(O)CCN(C(=O)C3CC3)CC2)c1 | -12%
COc1cc2c(cc1O)CC[n+]1cc3c(OC)c(OC)ccc3cc1-2 | -10%
Cc1ccc(-c2nc(C)sc2CC(=O)OCC(=O)Nc2c(F)cccc2F)cc1 | -10%
CCc1ccc(NC(=O)c2cnn3ccccc23)cc1 | -5%
CCCCCc1nc2c(C#N)c(-c3ccc(Cl)cc3)ccn2n1 | ?
C1CCCCCC2(CCCCC1)OCC(CN1CCOCC1)O2 (configuration not stated) | -9%
COc1ccc2c(c1)cc1n2CCN=C1NCCO | -21%
CCOc1ccc(/C=N/NC(=S)Nc2c(C)cccc2C)cc1 | -22%
O=C(CSc1nnnn1-c1ccc(O)cc1)Nc1cccc(S(=O)(=O)N2CCCC2)c1 | -6%
Nc1ccccc1S(=O)(=O)O | -3%
Cc1ccc(SCCC(=O)Nc2ccccc2C(=O)NC(C)C)cc1 | -16%
COc1ccc(CNC(=O)/C=C/C(=O)O)cc1OC | -10%
c1ccc(C(NCCNC(c2ccccc2)c2ccccc2)c2ccccc2)cc1 | -11%
CC(C)(C)n1nc2c(c1NC(=O)CCCc1ccccc1)CS(=O)C2 (configuration not stated) | -7%
Cc1ccc2cccc(NC(=S)NC(=O)c3ccnn3C)c2n1 | -2%
CCc1c(O)cc2n(c1=O)-c1ccccc1C2(C)C | -16%
C#CC[N+]1(CC#Cc2ccc(C)cc2)CCCCC1 | -4%
CC12C(=O)N(c3ccccn3)C(=O)C1C1C=CC2C1 (configuration not stated) | -1%
COC(=O)c1ccc(CSc2nc3c(cnn3-c3ccc(C)cc3)c(=O)[nH]2)o1 | -1%
COc1ccc(/C=C/C(=O)c2ccoc2)cc1 | ?
CCOC(=O)N1CCN(S(=O)(=O)c2ccc3[nH]c(=O)sc3c2)CC1 | -4%
CCS(=O)(=O)N1CCC(C(=O)NCc2ccco2)CC1 | -9%

Six compounds drawn at random from the list so far:
SMILES | HPGD inh
CC(C)(C)n1nc2c(c1NC(=O)CCCc1ccccc1)CS(=O)C2 (configuration not stated) | -7%
CCc1c(O)cc2n(c1=O)-c1ccccc1C2(C)C | -16%
COc1ccc(/C=C/C(=O)c2ccoc2)cc1 | ?
COc1ccc(CNC(=O)/C=C/C(=O)O)cc1OC | -10%
Cc1ccc2cccc(NC(=S)NC(=O)c3ccnn3C)c2n1 | -2%
c1ccc(C(NCCNC(c2ccccc2)c2ccccc2)c2ccccc2)cc1 | -11%

(further entries)
SMILES | HPGD inh
COc1cc(O)ccc1C(C)=O | -5%
CCN(CC)C(=O)C1=C(C)NC(=O)NC1c1c(F)cccc1Cl (configuration not stated) | -5%
CC1CCN(C2CCN(S(=O)(=O)c3ccc(F)cc3)CC2)CC1 | -10%
O=C(OCn1ncc(Cl)c(Cl)c1=O)c1ccc(F)cc1 | -13%
CCCCC1=CC2=C(c3ccco3)C(=O)C(C)(OC(=O)c3ccc(OC)cc3)C(=O)C2=CN1C1CCCCC1 (configuration not stated) | ?
Nc1ccc(S(=O)(=O)c2ccc(N)cc2)cc1 | -13%&-11%&-5%&-9%
CC(=O)Nc1ccc(S(=O)(=O)NCC(C)NS(=O)(=O)c2ccc(NC(C)=O)cc2)cc1 (configuration not stated) | -5%
CCOC(=O)N1CCN(C(=O)CSCC(=O)Nc2nc(-c3ccc(C)cc3)cs2)CC1 | -20%
CS(=O)(=O)N1CCc2cc(C(=O)N3CCCCC3)ccc21 | 3.2µM*
CCC(=O)Nc1cccc(-c2cn3ccsc3n2)c1 | -5%
O=C(C1CCN(S(=O)(=O)c2cccc3nsnc23)CC1)N1CCc2ccccc2C1 | ?
COc1ccc(-c2nc(-c3ccccc3)c(-c3cccs3)[nH]2)cc1OC | ?
CCCCCn1c(=NC(C)=O)c(C#N)cc2c(=O)n3ccccc3nc21 | ?
CCCCCCCc1nn2c(=O)cc(O)nc2s1 | -28%
CCC(=O)OCC(=O)[C@@]1(OC(=O)CC)[C@H](C)C[C@@H]2[C@@H]3[C@H]([C@@H](O)C[C@@]21C)[C@]1(C)C=CC(=O)C=C1C[C@@H]3Cl | -1%
CC(C)(C)NC1=CC(=O)OC12CCCCC2 | -5%
NCCC[C@@H](CC(=O)N[C@@H]1CCCC[C@H]1C(=O)N[C@H](CC(=O)N[C@@H](CCC(=O)O)CC(=O)O)Cc1c[nH]c2ccccc12)NC(=O)C[C@H](Cc1ccccc1)NC(=O)[C@@H]1CNCC[C@H]1N | -11%
COc1cccc(N2CC(C)Cn3c2nc2c3c(=O)n(CCN3CCOCC3)c(=O)n2C)c1 (configuration not stated) | -7%
